# Bioassay records from PubChem BioAssay.
# D2 ag: Beta-Arrestin HTS for Positive Allosteric Modulators of the Human D2 Dopamine Receptor: Agonists; activation, % (test concentration not listed); DiscoveRx PathHunter D2 beta-arrestin, luminescence, 90 min; 100% = 57 uM dopamine signal; AID 624465, 2012; actives 0.084% (n = 360,000); in the data active = activation above about 40%; inconclusive = about 15% to 40%; inactive = below about 15%; also: compound concentration not given in the record; the text of the record calls up to 30% inactive
# Target sequence (P14416 whole entry, looked up): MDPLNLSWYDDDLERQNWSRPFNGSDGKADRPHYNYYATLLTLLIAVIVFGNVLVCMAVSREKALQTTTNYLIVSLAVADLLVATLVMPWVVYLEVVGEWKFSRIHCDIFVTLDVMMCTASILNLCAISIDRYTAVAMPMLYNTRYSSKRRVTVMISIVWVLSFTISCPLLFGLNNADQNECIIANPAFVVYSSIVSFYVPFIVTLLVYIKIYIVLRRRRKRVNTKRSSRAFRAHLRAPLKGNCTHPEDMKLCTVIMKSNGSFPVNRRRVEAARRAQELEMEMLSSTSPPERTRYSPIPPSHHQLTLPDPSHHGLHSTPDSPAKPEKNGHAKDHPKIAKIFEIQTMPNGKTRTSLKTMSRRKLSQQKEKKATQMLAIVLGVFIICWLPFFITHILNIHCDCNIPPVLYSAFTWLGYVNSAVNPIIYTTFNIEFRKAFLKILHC
#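 DiscoveRx PathHunter D2 beta-arrestin cells (2,100/well) attached overnight, then compound-stimulated 90 min at 37 C in HBSS/10 mM HEPES/0.1% Tween-20 buffer; beta-galactosidase complementation read by luminescence after 1 h at ambient temperature. Dopamine 57 uM final (EC100) as control.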
# PINK1 modulator: A Quantitative High throughput Screen to Identify Chemical Modulators of PINK1 Expression; PINK1 immunofluorescence, high-content cytometry, 24 h; Potency, µM (titrated, usually from 76.6 µM), inactives show at the highest dose activation (PINK1 increase), hits mostly activators; actives 0.2% (n = 410,000); active = well fitted activation curve with a large enough effect; inconclusive = small, poorly fitted or top-dose-only effect; inactive = flat fitted curve, though single readings scatter; cell line not stated here;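 also: potency is read from the fitted curve at half-maximal effect; % of control where 0% means no effect; nearly all actives have a fitted effect of over 65% in size; a mitochondrial uncoupler was the plate control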
#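 Measures PINK1 amount and localization on or inside mitochondria by immunofluorescence. Stable cells get compounds at 5 concentrations for 24 hours before fixation and staining; CCCP controls included.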
# TRPML1 agonist: qHTS for Agonists of the Human Mucolipin Transient Receptor Potential 1 (TRPML1); Mucolipin-1 (Homo sapiens), Q9GZU1; TRPML1-expressing cells, Ca2+ dye fluorescence, FDSS; host cell line not named in the record; reference of the full effect not given here; activation, % (concentration not given with the values); actives 0.12% (n = 410,000); AID 624414, 2012; in the data active = activation above about 50%; inconclusive = about 30% to 50%; inactive = below about 30%; also: 0% is about no effect; the text of the record puts the active cut at 80%
# Target sequence (Q9GZU1 whole entry, looked up): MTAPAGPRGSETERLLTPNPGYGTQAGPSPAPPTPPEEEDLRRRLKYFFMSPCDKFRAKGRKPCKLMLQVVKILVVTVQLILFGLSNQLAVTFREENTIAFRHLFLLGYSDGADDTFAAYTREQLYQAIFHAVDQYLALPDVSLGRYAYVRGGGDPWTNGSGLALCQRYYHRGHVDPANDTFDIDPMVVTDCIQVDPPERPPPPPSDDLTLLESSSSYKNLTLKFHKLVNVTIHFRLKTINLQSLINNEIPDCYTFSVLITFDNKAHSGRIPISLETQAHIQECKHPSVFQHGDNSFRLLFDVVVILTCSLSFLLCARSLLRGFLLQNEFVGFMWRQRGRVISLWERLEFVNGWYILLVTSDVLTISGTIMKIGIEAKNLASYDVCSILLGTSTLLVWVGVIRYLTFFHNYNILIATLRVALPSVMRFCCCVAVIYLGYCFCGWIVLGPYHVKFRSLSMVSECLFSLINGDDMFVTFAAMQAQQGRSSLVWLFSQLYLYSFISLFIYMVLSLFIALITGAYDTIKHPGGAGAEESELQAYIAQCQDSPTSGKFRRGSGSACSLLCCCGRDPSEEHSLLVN
#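 In this qHTS format, compounds were pin-transferred onto Ca8-dye-loaded TRPML1-DL cells induced with Tet overnight, and intracellular Ca2+ fluorescence was recorded kinetically for 110 s after a 10 s baseline. A subsequent 4uM final 54-4 (EC80) addition followed by a second 110 s read served as the antagonist phase.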
# Six1-Eya2 blk: qHTS Assay for Inhibitors of the Six1/Eya2 Interaction; activity change, % (no concentration beside the values); AlphaScreen GST-Six1/His-Eya2 binding, biochemical; active compounds read low; control for the full effect not named in the record; actives 0.56% (n = 360,000); Homeobox protein SIX1 (Homo sapiens) + Protein phosphatase EYA2 (Homo sapiens), …; in the data active = activity change below about -65%; inconclusive = about -30% to -65%; inactive = above about -30%; also: % is scaled to controls: 0 for no effect and ±100 for the full control effect
#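 Homogeneous AlphaScreen proximity assay pairing GST-Six1 with His-tagged Eya2 (added as 5X mix: 250 nM and 500 nM) in 50 mM Tris pH 8.0, 300 mM NaCl, 1 mM TCEP. Glutathione donor and nickel acceptor beads; 1 h, 37 °C, dark.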
# TRPML1 inh: qHTS for Inhibitors of the Human Mucolipin Transient Receptor Potential 1 (TRPML1) | Mucolipin-1 (Homo sapiens), Q9GZU1 | TRPML1-inducible cells, Ca2+ dye fluorescence, FDSS; active compounds read low; inhibition of EC80 agonist-evoked calcium signal | activity change, negative = inhibition, % (concentration not given with the values) | actives 0.02% (n = 390,000) | AID 624415, 2012; in the data active means activity change below about -50%; inconclusive means about -30% to -50%; inactive means above about -30%;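 also: stimulus is agonist 54-4 at its EC80 concentration; % is scaled to controls: 0 for no effect and ±100 for the full control effect; the text of the record puts the active cut at -80%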
#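 TRPML1-DL cells, Tet-induced overnight (~16 h, 37 °C) at 1,500 cells/well, were loaded with Ca8 no-wash dye plus quencher for 45-90 min at room temperature. Compounds were pinned during FDSS kinetic reading; agonist 54-4 at EC80 (4 uM final) then added.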
# CtBP-E1A blk: qHTS Assay for Inhibitors of the CtBP/E1A Interaction; activity change, % (concentration not given with the values); AlphaScreen GST-E1A/His-CtBP binding, 1536-well; active compounds read low; control for the full effect not named in the record; CtBP / adenovirus E1A interaction (AlphaScreen); actives 0.49% (n = 340,000); in the data active means activity change below about -65%; inconclusive means about -30% to -65%; inactive means above about -30%; also: % is scaled to controls: 0 for no effect and ±100 for the full control effect
#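 Homogeneous bead-based format: GST-tagged E1A captured on glutathione donor beads, His-tagged CtBP on nickel acceptor beads; compounds precede bead addition by 2 h at 37 °C.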
# * = called active by the depositor; ? = inconclusive; . = not tested or not shown; & = joins results of further samples; [ ] = remark or other dose. Outcome played no part in choosing rows. Share with any hit: about 1%.
# Order of results – D2 ag	PINK1 modulator	TRPML1 agonist	Six1-Eya2 blk	TRPML1 inh	CtBP-E1A blk
O=C(O)c1cccc(S(=O)(=O)Nc2ccc([N+](=O)[O-])cc2O)c1
 : -7.1	0.6%	-0.2	-22	12	-12
O=C(CSc1nnnn1C1CCCC1)Nc1ccc2c(c1)OCCO2
 : 0.3	.	0.5	1	11	1
CCOC(=O)C1=C(COC(=O)CCOc2ccc(OC)cc2)NC(=O)NC1C (stereo not drawn)
 : 2.9	3.3%	-0.4	-1	-6	.
COc1ccccc1NC(=O)Nc1nc(CC(=O)NCc2ccccn2)cs1
 : -1.3	-3.5%	0.1	-4	-3	7
C=CCNC(=O)COC(=O)CNC(=O)c1cc(Cl)cc([N+](=O)[O-])c1
 : -5.4	2.1%	0.4	25	12	-2
Cc1ccc(-c2nc3ccc(Br)cn3c2Cc2ccccc2)cc1
 : -4.1	3.2%	3.8	-5	32	3
Cc1nc2ccccc2c(=O)n1/N=C/c1c(O)ccc2oc3c(c12)CCCC3
 : -1.1	7.8%	0.4	-11	3	3
COC(=O)C1=C(C)N(Cc2ccccc2)C(=O)N[C@H]1c1ccco1
 : -0.3	-0.2%	0.2	2	-18	-3
Cc1ccccc1OCC(=O)N1CCCc2ccccc21
 : -5.6	1.1%	-0.6	1	11	3
Cc1ccccc1-c1n[nH]c(=S)n1Cc1ccccc1
 : 11	1.3%	1.6	4	-4	-3
O/N=C1\CC(O)Cc2nonc21 (stereo not drawn)
 : -1.3	-4.5%	0.0	5	47	-2
Fc1ccc2c(c1)Sc1ccc(Cl)cc1CC2N1CCN(CCC2OCCO2)CC1 (stereo not drawn)
 : -7.9	0.0%	0.0	1	-7	-11
Cc1ncc([N+](=O)[O-])n1CCOC(=O)NC(NCc1cccnc1)C(Cl)(Cl)Cl (stereo not drawn)
 : -4.6	0.6%	0.2	-2	-8	0
Cc1c(Cl)ccc2sc(N3CCN(C(=O)c4ccco4)CC3)nc12
 : .	-0.9%	-0.2	.	37	.
COc1ccc(C(=O)c2coc(-c3ccccc3C(=O)O)c2C(=O)O)cc1
 : -6.7	0.5%	2.3	6	33	-13
CCn1cc2nc(SCC(=O)Nc3ccc(F)cc3F)n(Cc3ccccc3)c(=O)c2n1
 : -3.8	-0.9%	3.5	-4	21	.
Cc1cccc(NC(=O)CN2C(=O)N/C(=C\c3ccc(-c4cccc(C(=O)O)c4)o3)C2=O)c1
 : -1.3	0.7%	0.3	-2	-12	-1
O=C(NCC(c1cccnc1)N1CCN(c2ccc(F)cc2)CC1)C1CCCCC1 (stereo not drawn)
 : 1.6	-0.9%	-0.7	6	26	-3
C[C@@H](C(=O)CC(=O)OC(C)(C)C)[C@@H](O)c1c(F)cccc1Cl
 : -2.1	0.1%	-0.3&1.0	1	-11&-5	0
O=C(O)c1cnn(-c2nc(-c3ccc(Cl)cc3)cs2)c1C(F)(F)F
 : -0.3	0.8%	1.4	0	25	2

# The list goes on, overlapping the part above by 3 compounds.
# Order of results – D2 ag	PINK1 modulator	TRPML1 agonist	Six1-Eya2 blk	TRPML1 inh	CtBP-E1A blk
O=C(NCC(c1cccnc1)N1CCN(c2ccc(F)cc2)CC1)C1CCCCC1 (stereo not drawn)
 : 1.6	-0.9%	-0.7	6	26	-3
C[C@@H](C(=O)CC(=O)OC(C)(C)C)[C@@H](O)c1c(F)cccc1Cl
 : -2.1	0.1%	-0.3&1.0	1	-11&-5	0
O=C(O)c1cnn(-c2nc(-c3ccc(Cl)cc3)cs2)c1C(F)(F)F
 : -0.3	0.8%	1.4	0	25	2
CC(NC(=O)c1ccc(Cl)cc1)C(=O)NC1=NCCS1 (stereo not drawn)
 : -1.1	5.9%[38.3 µM]	2.6	-1	1	25
COc1ccc(CNC(=O)CN(C)S(=O)(=O)c2ccc3c(c2)c(=O)n(C)c(=O)n3C)cc1
 : -0.9	0.6%&2.1%	0.2&-0.3	-6	5&-6	3
CCc1nn(C(C)C(=O)NCc2cccc(OC)c2)c(=O)c2cc3occc3n12 (stereo not drawn)
 : -2.1	2.5%	-0.8	-2	-21	-11
Cc1ccc2[nH]c3c(=O)n(CC(=O)Nc4ccc(Br)cc4C)ncc3c2c1
 : .	0.5%	0.9	.	-21	.
O=C(CCl)Nc1ccccc1C(=O)Nc1ccc2c(c1)OCO2
 : 3.2	-0.9%	0.7	-11	24	-4
Cc1ccc(C(=O)Nc2cccc(S(=O)(=O)N3CCOCC3)c2)cc1[N+](=O)[O-]
 : -0.2	3.2%	0.5	-8	10	5
COc1ccc(C(=O)COC(=O)CNC(=O)c2ccccc2)cc1F
 : 2.0	2.5%	1.9	-1	2	-3
O=C(Nc1ccc(O)c(-c2nc3ccccc3o2)c1)C1(c2ccc(Cl)cc2)CCCC1
 : 2.3	3.8%	1.1	34	-7	38
CCC(=O)Nc1ccc(/C(C)=N\NC(=O)c2ccc(OC)cc2)cc1
 : 0.5	1.3%	2.4	-6	24	2
O=C(Nc1ccccc1O)c1cccc(S(=O)(=O)N2CCOCC2)c1
 : -3.9	2.9%	-0.4	2	-3	3
CCOc1ccc(-c2nnc3sc(COc4ccccc4)nn23)cc1
 : -4.3	2.9%	2.6	2	-20	3
CCC(CC)C(=O)N(C)c1c(C)nc2c(OCCC3CCCCC3)cccn12
 : -4.4	2.9%	-0.1	9	17	-6
Cc1ccc(C)c2[nH]c(=O)c(CCNC(=O)c3cc4ccccc4o3)cc12
 : -0.9	-0.6%	-1.1	-3	-3	-3
Cc1nc(SCC(=O)Nc2ccc(C)c(F)c2)c2oc3ccccc3c2n1
 : -2.0	6.9%	-1.1	-7	-6	-3
COc1ccc(-c2oc3ccc(-c4cc(OC)c(OC)c(OC)c4)cc3c2C(=O)c2ccc(OC)nc2)cc1
 : 0.2	4.1%	-0.5	2	15	6
O=C(O)c1cc2nc3c(c(C(F)(F)F)n2n1)CCc1ccccc1-3
 : -4.3	-1.7%	0.7	?	-12	-26
CCN1CCN(C(=O)/C=C/c2ccccc2[N+](=O)[O-])CC1
 : -5.7	-1.2%	0.1	4	7	3
CS(=O)(=O)N(CC(=O)N1CCOCC1)c1cccc(Cl)c1
 : -2.8	1.0%	0.2	-13	9	4
C[C@H]1CN(S(=O)(=O)C(C)(C)C)[C@H](CCO)/C1=C\c1ccccc1
 : 1.1	-0.9%	0.5	4	36	-22
COc1ccccc1/C=N/Nc1nncc2ccccc12
 : -2.5	-1.0%	3.2	-13	10	-23
COC(=O)c1ccc2c(c1C(=O)OC)CN(S(=O)(=O)C(C)(C)C)[C@H]2CCO
 : -0.2	1.4%	-0.9	12	38	2
COc1ccc(CCNC(=O)C(C)OC(=O)c2cccs2)cc1OC (stereo not drawn)
 : -0.5	2.3%	-0.7	-1	-12	7
Nc1nc(Nc2ccccc2F)nc(N2CCCC2)c1[N+](=O)[O-]
 : -2.2	8.1%	0.8	-17	3	?
CC1(C(=O)NC2CCN(Cc3ccccc3)CC2)CCN1Cc1cc2ccccc2o1 (stereo not drawn)
 : -3.4	-0.1%	-0.2	-6	.	-3
CCCCCCSc1ccc([C@@H]2[C@@H]3C(=O)N(C)C(=O)[C@@H]3[C@]3(C(=O)OC)CCCCN23)cc1
 : -1.2	14%	0.8	14	-6	0
O=C(CCN1C(=O)c2ccccc2C1=O)NNC(=O)c1ccc(Cl)cc1Cl
 : 0.1	-1.2%	-0.5	0	-13	5
COC(=O)C1=C(C)N(CCCC(=O)O)C(=O)NC1c1ccccc1OS(=O)(=O)c1ccc([N+](=O)[O-])cc1 (stereo not drawn)
 : 2.7	-0.2%	-0.6	-2	-6	6
CC(=O)c1cccc(S(=O)(=O)N2CCC(C(=O)Oc3ccc(-c4nnco4)cc3)CC2)c1
 : -5.6	-2.3%	0.1	-7	-11	2
COc1ccc(-c2c(C#Cc3ccsc3)c3ccccc3n2C)cc1
 : -3.1	?	0.2	-1	-3	0
CC(C)C(C(=O)Nc1ccc2c(c1)OCO2)N1C(=O)c2ccccc2C1=O (stereo not drawn)
 : -1.5	0.0%	-0.6	-9	-4	3
O=C1N/C(=C\c2ccc(N3CCOCC3)c(F)c2)C(=O)N1Cc1ccccc1
 : -2.7	3.3%	-0.7	4	-1	9
CCOC(=O)c1sc2ncnc(N3CCN(C(=O)OCC)CC3)c2c1C
 : 0.8	0.9%	2.7	4	36	3
CCOC(=O)c1ccc(NC(=O)COC(=O)Cc2csc(-c3ccccc3)n2)cc1
 : 0.7	3.5%	2.8	-1	2	1
CCOc1ccc(NC(=O)CN(C)C(=O)c2cn(-c3ccccc3)nc2-c2cccs2)cc1OCC
 : -4.7	-1.6%	0.4	-12	-17	6
COc1ccc2[nH]cc(CCNS(=O)(=O)c3ccc(C)cc3)c2c1
 : 13	0.4%	-0.3	-23	8	0
CN(C)S(=O)(=O)c1ccc(C(=O)NCCSc2ccccc2)cc1
 : -4.5	-0.1%	-0.7	1	-13	13
Cc1ccc(S(=O)(=O)N(C)C)cc1NC(=O)C(C)OC(=O)/C=C/c1cccs1 (stereo not drawn)
 : -3.5	3.2%	1.0	-4	20	-1
CC(C)NC(=O)c1cc(C2CCCCN2C(=O)c2ccccc2)on1 (stereo not drawn)
 : 2.3	-1.4%	-0.1	3	11	5
CC(OC(=O)c1ccc(S(=O)(=O)NCc2ccco2)cc1)C(=O)Nc1ccccc1 (stereo not drawn)
 : -0.4	?	0.4	6	-9	0
O=C(CNC(=O)c1cccc(-n2cccc2)c1)Nc1ccccc1Br
 : 1.1	0.5%	-0.6	?	14	4
COc1ccc(NC(=O)CN(C)C(=O)c2cc(-c3ccco3)nc3ccccc23)cc1
 : -3.8	-7.8%	-0.1	-28	5	2
Cc1ccc(NC(=O)c2nc[nH]c2C(=O)NCCCNC(=O)c2[nH]cnc2C(=O)Nc2ccc(C)cc2)cc1
 : 0.1	0.1%	-0.6	4	-5	5
COc1ccc(-n2cc(CN[C@H]3CCCCNC3=O)c(-c3cccc(F)c3)n2)cc1
 : 1.4	0.9%	0.0	13	11	-2
CSc1ccc(/C=N/NC(=O)COc2ccc(Br)cc2Cl)cc1
 : -0.7	?	0.0	1	-1	14
CC(C)C1(C2CCCC2)NC(=O)NC1=O (stereo not drawn)
 : -0.3	-1.4%	0.0	3	3	5
COc1ccc(NC(=O)C(C)Sc2nnc(C3CC3)n2C2CC2)cc1 (stereo not drawn)
 : 0.4	0.3%	-0.1	3	-15	4
